HNF4A DNA FP = change in binding of human HNF4A to DNA, primary screen, biochemical, fluorescence polarization, FITC-DNA. Hepatocyte nuclear factor 4-alpha (Homo sapiens), P41235. 1 h. activity change, % at 10 µM. hit rate 0.3% among 360,000; in the data active = activity change above about 30%, passing the limit was not always enough;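 note: controls were the assay level and a saturating level of protein; the project sought stronger binding though the title names inhibitors; some compounds called inactive have numbers as strong as hits; positive values seem to mean higher polarization but the record does not say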
Ecoli growth = E. coli growth inhibition, primary screen, OD600; OD600 absorbance (no concentration beside the values); hit rate 0.21% among 330,000; AID 1053175, 2014; Escherichia coli growth, 23 h; hits give low values;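 active = OD600 absorbance below the run mean of sample wells minus 3.6 SD, in any replicate, cut at about 0.56 in these data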;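 note: stock transfer was 300 nL into about 60 µL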
FGF22 binding = binders of human FGF22 protein, primary screen, FGF22 synaptogenesis inhibitor project, biophysical, thermal shift, single point | calls only at 9.99 µM | recombinant FGF22 thermal shift, SYPRO orange fluorescence; percent of sucrose octasulfate shift, DMSO zero | Fibroblast growth factor 22 (Homo sapiens), Q9HCT0 | hit rate 1.5% among 340,000;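 active = melting point raised past a set limit in the mean and every replicate; inconclusive = no clear call; three in four hits are not shown here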
Target sequence (Q9HCT0 whole entry, looked up): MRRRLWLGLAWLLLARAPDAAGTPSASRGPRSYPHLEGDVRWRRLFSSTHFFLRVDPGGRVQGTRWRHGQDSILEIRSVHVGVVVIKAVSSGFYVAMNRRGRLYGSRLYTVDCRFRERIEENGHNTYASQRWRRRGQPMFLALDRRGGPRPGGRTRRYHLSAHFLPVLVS
B2AR ag = beta2AR agonists driving receptor internalization, primary screen, cell-based, FAP fluorogen, flow cytometry; Beta-2 adrenergic receptor (Homo sapiens), P07550; Am2.2-beta2AR cells; reference of the scale not given here; response, % (concentration not given with the values); hit rate 0.43% among 340,000; AID 504454, 2011;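 active = response above a set limit, near 3 SD of response in nonfluorescent compounds, cut at about 42% in these data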;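 note: stock transfer was 100 nL into about 11 µL; a reference agonist was the positive control; negative values mostly stem from fluorescent compounds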
Target sequence (P07550 whole entry, looked up): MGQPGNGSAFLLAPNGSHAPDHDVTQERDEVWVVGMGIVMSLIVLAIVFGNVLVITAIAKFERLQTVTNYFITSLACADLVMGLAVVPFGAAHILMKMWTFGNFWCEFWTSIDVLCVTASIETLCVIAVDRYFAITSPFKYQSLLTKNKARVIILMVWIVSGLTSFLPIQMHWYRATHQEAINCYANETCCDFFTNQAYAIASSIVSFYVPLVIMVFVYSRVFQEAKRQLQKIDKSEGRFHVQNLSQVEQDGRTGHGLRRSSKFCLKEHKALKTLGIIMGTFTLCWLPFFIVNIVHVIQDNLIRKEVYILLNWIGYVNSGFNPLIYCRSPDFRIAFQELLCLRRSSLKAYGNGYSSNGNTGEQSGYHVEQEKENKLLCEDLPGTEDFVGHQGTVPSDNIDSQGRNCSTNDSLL
ALR H2O2 inh = inhibitors of human ALR sulfhydryl oxidase, primary screen, biochemical, H2O2 detection, HRP-luminol luminescence, single point. purified ALR, DTT oxidation. inhibition, % (concentration not given with the values). hit rate 3.8% among 290,000;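 active = mean and each replicate at 75% or more; inconclusive = only one of the two met; inactive = neither met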;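 note: stock transfer was 7.5 nL into about 7.5 µL; 0% = neutral wells and 100% = wells with inactivated enzyme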
UCH37 inh = inhibitors of human UCH37 deubiquitinase, primary screen, biochemical, Ub-AMC cleavage, fluorescence | AID 588478, 2011 | hit rate 0.33% among 330,000 | Ubiquitin carboxyl-terminal hydrolase isozyme L5 (Homo sapiens), Q9Y5K5 | inhibition, % (test concentration not listed) | purified proteasome/UCH37;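 active = mean of two replicates above 20%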;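 note: 0% = compound-free wells with enzyme and 100% = wells lacking proteasome; stock transfer was 100 nL into about 20 µL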
Target sequence (Q9Y5K5 whole entry, looked up): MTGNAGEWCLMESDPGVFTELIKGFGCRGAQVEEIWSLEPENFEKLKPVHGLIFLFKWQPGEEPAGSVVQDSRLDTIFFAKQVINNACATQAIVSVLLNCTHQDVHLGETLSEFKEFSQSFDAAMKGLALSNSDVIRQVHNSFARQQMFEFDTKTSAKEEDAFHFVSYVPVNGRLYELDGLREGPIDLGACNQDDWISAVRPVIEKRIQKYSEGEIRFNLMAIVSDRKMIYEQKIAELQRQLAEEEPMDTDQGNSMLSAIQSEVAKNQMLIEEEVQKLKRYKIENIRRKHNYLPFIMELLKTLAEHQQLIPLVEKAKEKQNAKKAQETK
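System: Proteasome-associated human UCH37 deubiquitinase; Input: 0.15 nM proteasome in added enzyme buffer; Also added: Ub-AMC substrate from 1 µM stock; Incubation: 30 min compound-proteasome preincubation then 25 min substrate reaction, room temperature; Detection: fluorescence, ex 355 nm, em 460 nm; Read-out: % inhibition of Ub-AMC cleavage fluorescence; Benchmarks: no-proteasome and no-compound wells.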
rRNA inh HTS = reduced GFP signal of wild-type E. coli, primary screen, bacterial rRNA inhibitor project, GFP/RFP fluorescence, OD600, single point | hit rate 1.6% among 350,000 | GFP signal change (wild-type ribosome), % (test concentration not listed) | E. coli WT GFP vs humanized-ribosome RFP mutants, 24 h; hits give low values; DMSO median 0, no signal -100 | AID 720706, 2013;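 active = significant combined selectivity score with lowered wild-type GFP, culture density cut under 30%, mutant RFP and density less affected; inactive = any of these conditions unmet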; note: one replicate is shown; some compounds called inactive have numbers as strong as hits
rRNA inh HTS OD600 = second read-out of rRNA inh HTS, no call of its own (marks repeat the call); OD600 change, %; measured here: OD600 growth;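 optical density of the mix in the first replicate; 0 = DMSO median and -100 = no signal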
rRNA inh HTS RFP = further read-out of rRNA inh HTS, marked with its call; RFP signal change, %; measured here: RFP humanized mutant strains;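 first replicate; 0 = DMSO median and -100 = no signal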
* = called active by the depositor; i = inactive; ? = inconclusive; / = not tested or not shown. These rows are one share of the data. The share of hits here may be higher or lower than overall.

Each structure is followed by: Ecoli growth, ALR H2O2 inh, B2AR ag, rRNA inh HTS RFP, rRNA inh HTS OD600, HNF4A DNA FP, UCH37 inh, rRNA inh HTS, FGF22 binding
Cc1noc(C)c1C(=O)OCC(=O)/C=C1\N(C)c2ccccc2C1(C)C
→ 0.727, -10.9, 3.1, /, /, 2.4, -21.8, /, /
Cn1c(=O)oc2cc(S(=O)(=O)N3CCC(C(=O)Nc4ccc(OC(F)(F)F)cc4)CC3)ccc21
→ 0.726, 8.9, 6.9, /, /, 3.7, 3.8, /, /
CC1C(c2ccccc2)N(C)C(c2ccccc2)CC1(O)c1ccccc1 (stereo unspecified)
→ 0.659, -3.8, 5.0, -4.2, -47.5, -2.4, 2.2, -27.2, /
C[C@H](CO)N1C[C@H](C)[C@@H](CN(C)C(=O)NC2CCCCC2)Oc2c(NS(=O)(=O)c3cn(C)cn3)cccc2C1=O
→ /, -1.2, -3.6, -1.7, 2.2, -3.7, 5.0, 1.2, i
c1nc(COc2nsnc2N2CCOCC2)cs1
→ 0.665, 1.9, 3.4, /, /, -0.4, 4.8, /, /
CCOC(=O)NC(=O)COC(=O)CNC(=O)c1cccc(OC)c1
→ 0.686, -21.4, 3.0, -2.7, -0.1, -1.1, -0.7, 11.4, i
NC(=O)c1ccc(NC(=O)COC(=O)c2ccc([N+](=O)[O-])cc2)cc1
→ 0.7, -11.4, -2.7, 1.9, 11.7, 2.2, 2.8, 15.1, i
CCNc1ccc(C(=O)OCC(=O)Nc2cc(C)on2)cc1[N+](=O)[O-]
→ 0.694, /, 4.2, -1.9, 14.5, 1.5, 1.3, 3.6, i
COc1ccc(CNC(=O)c2cc(C3CC3)nc3c2cnn3C(C)C)cc1
→ 0.628, -3.5, 5.2, -3.1, -31.4, 2.5, -8.5, -7.6, i
O=C(Nc1cc(Cl)ccc1N1CCOCC1)c1ccco1
→ 0.718, 0.4, -16.6, 1.4, 14.8, 2.2, -4.2, 12.6, i
CCCCNC(=O)c1sc(=S)n(-c2ccccc2OC)c1N
→ 0.732, 48.0, -2.9, /, /, 3.4, 6.8, /, /
O=C(c1ccsc1)N1CCCC(N2CCN(c3cccc(Cl)c3)CC2)C1 (stereo unspecified)
→ 0.654, 40.7, 0.3, -2.6, -11.5, 5.2, 1.2, -1.4, i
CCSc1nnc(-c2ccc(Cl)cc2Cl)o1
→ 0.636, -9.1, -17.5, /, /, -1.5, 0.0, /, /
COc1ccccc1NC(=O)c1sc2ncn(Cc3cccc(C)c3)c(=O)c2c1C
→ 0.65, -3.2, -6.6, /, /, 7.8, -211.8, /, /
COC(=O)c1[nH]c2ccccc2c1NC(=O)CN1CC(C)OC(C)C1 (stereo unspecified)
→ 0.702, -3.1, 0.1, /, /, -1.4, 1.4, /, /
Cc1ccc(CN2CC(C(=O)N3CCN(S(=O)(=O)c4cccc(F)c4)CC3)CC2=O)cc1 (stereo unspecified)
→ 0.663, -2.5, 2.4, 2.6, 12.5, -1.8, 0.4, 8.0, i
COc1ccc(OC)c(CNC(=O)CCN2C(=O)COc3ccccc32)c1
→ 0.685, -6.9, -13.8, -1.4, 11.3, -2.3, -0.7, 6.6, /
CC1CCCN(C(=S)NCc2ccccc2)C1 (stereo unspecified)
→ 0.633, -18.7, -6.9, /, /, -1.0, 1.5, /, /
COc1ccccc1CNC(=O)CSc1nc2nc(C)cc(C)n2n1
→ 0.728, -8.8, -10.7, /, /, 4.2, 4.3, /, /
CCOc1ccc(CN2CCCN(C)CC2)cc1
→ 0.672, -3.1, -0.8, -1.5, 3.4, 0.7, 2.2, 10.2, i
COc1ccc(-c2onc(C)c2-c2ccc3c(c2)OCCO3)c(O)c1
→ 0.677, 14.9, 9.6, -14.1, -35.9, -1.4, 2.3, -35.5, i
O=C(COc1ccc(S(=O)(=O)NCc2ccccc2)cc1Cl)NCc1ccncc1
→ 0.711, /, 1.7, -0.3, -1.6, -3.5, 2.5, -2.9, i
COc1cc(OC)c(C(=O)OC(C)C(=O)Nc2cc(C(F)(F)F)ccc2Cl)cc1OC (stereo unspecified)
→ 0.656, -6.6, -6.6, -7.9, -10.2, 4.6, 0.5, -6.4, i
COc1ccc(OC(=O)COc2cccc(C)c2)cc1
→ 0.679, 3.9, 0.6, -0.2, 13.6, -1.9, 2.9, 4.0, i
CC(C)N1CCCC(C)(C(=O)Nc2nc3ccccc3[nH]2)C1 (stereo unspecified)
→ /, /, /, 6.7, 25.2, -1.7, /, 15.3, i
CC(=O)c1cccc(NC(=O)COC(=O)Cc2ccc(Cl)cc2)c1
→ 0.632, /, 1.6, 6.3, -5.5, 2.7, 3.8, -8.2, i
COc1ccc(C(=O)NCc2cccnc2)cc1OC
→ 0.696, -5.7, -7.2, /, /, 0.3, 2.8, /, /
CCCCn1nnnc1NCc1ccc(N2CCCC2)cc1
→ 0.763, 6.8, -7.9, /, /, -0.3, -0.2, /, /
O=C(Nc1nc2ccccc2[nH]1)c1ccc(Br)o1
→ 0.701, -1.0, -0.1, -0.3, -5.7, 7.1, 6.7, 9.2, i
N#Cc1ccccc1OCC(=O)Nc1ccc2c(c1)OCO2
→ /, /, /, -0.8, -1.7, 3.7, /, -2.1, i
COc1cccc(-n2nnc3c(=O)n(C/C=C/c4ccccc4)cnc32)c1
→ /, -12.3, -3.5, 0.8, -7.0, 0.4, 0.3, -5.2, i
CCOP(=O)(c1ccccc1)C1(C#N)CCCC1 (stereo unspecified)
→ 0.683, 3.5, 2.0, /, /, 0.6, 3.7, /, /
CCCS(=O)(=O)N1CCC(CCOc2ccccc2)(C(=O)OCC)CC1
→ 0.676, -5.4, -5.8, -4.5, -32.1, -0.5, 1.8, -17.9, i
CCc1cccc(NC(=O)C2CCCN2S(=O)(=O)c2ccc3c(c2)n(C)c(=O)c(=O)n3C)c1 (stereo unspecified)
→ 0.693, -1.6, -8.2, 3.8, 1.2, -2.7, 2.2, 6.5, i
Cc1cnc(NC(=O)c2ccco2)s1
→ 0.678, 5.9, -4.3, /, /, 1.5, 4.1, /, /
O=C1c2ccccc2C(=O)N1CC1CO1 (stereo unspecified)
→ 0.649, /, 8.5, -3.2, 14.3, -0.1, 2.6, 7.3, i
Cc1cc(=O)n2[nH]cc(C(=O)O)c2n1
→ 0.662, -10.9, 11.5, 4.7, 16.9, 4.2, 2.8, 19.0, /
Cc1ccc(S(=O)(=O)c2c(C)nn(-c3ccccc3)c2OC(=O)c2ccco2)cc1
→ 0.696, -5.9, 0.7, -4.2, -2.3, 1.9, 3.4, 15.4, i
O=C(COC(=O)/C=C/c1ccccc1)NC1CCS(=O)(=O)C1 (stereo unspecified)
→ 0.657, /, 6.9, -0.7, 14.4, -1.2, 1.4, 7.3, i
CCOC(=O)c1ccc(NC(=O)CSc2nc3ncccc3[nH]2)cc1
→ 0.561, 11.7, -13.8, 11.3, -15.2, 1.9, 5.7, -11.8, i
Cn1cccc1Cc1nnc(SCC(=O)Nc2ccc(F)cc2)n1CCc1ccccc1
→ 0.689, 0.0, -1.1, 5.9, -10.5, -3.0, 0.6, -7.7, i
O=C1C2ON(c3ccc(Br)cc3)C(c3cccnc3)C2C(=O)N1C1CCCCC1 (stereo unspecified)
→ 0.817, -0.8, -4.4, /, /, 0.8, 5.1, /, /
CC1Cc2ccccc2N1Cc1cc(=O)c(OCC(=O)Nc2ccccc2)co1 (stereo unspecified)
→ 0.682, /, -2.7, -0.7, -2.5, 0.7, -0.3, -8.9, i
COc1cc(CCC(=O)OCC(=O)N2CCc3ccccc32)cc(OC)c1OC
→ 0.62, 1.4, 0.8, -1.3, -9.3, -4.0, 1.0, -11.1, i
Cc1ccc(CNC(=O)C2CCC(=O)N(CC3CCCCC3)C2)o1 (stereo unspecified)
→ 0.638, -0.3, 2.7, 4.2, 1.4, 0.8, 2.2, 9.3, i
CCN(Cc1nc2ccccc2n1C)c1ccccc1
→ 0.689, 98.5*, 2.0, 1.7, -5.5, -1.3, 6.2, -15.9, i
CCOc1ccc(NC(=O)CN2C(=O)NC3(CCCC3)C2=O)cc1S(=O)(=O)N1CCCCC1
→ 0.63, -0.8, -3.5, /, /, 1.3, 0.9, /, i
COc1ccc(CNC(=O)C2CCN(S(=O)(=O)N3CCC(C)CC3)CC2)c(OC)c1
→ /, /, /, 1.0, 5.8, 1.9, /, 2.6, i
O=C(c1cc2c(c(-c3cccc(-c4ccc(F)cc4)c3)n1)[C@H](CCO)N(C(=O)c1ccc3c(c1)OCO3)C2)N1CCOCC1
→ /, /, /, -0.1, -10.0, 1.8, /, -5.8, i
CCSc1nc(-c2ccccc2)nc(C(Cl)Cl)n1
→ 0.677, 2.2, 40.0, -0.8, 6.8, 2.7, 3.3, 3.2, i
O=C(Nc1ccccc1OC(F)F)c1ccc(-n2cncn2)c([N+](=O)[O-])c1
→ 0.71, 1.9, 5.5, -4.1, 4.4, -0.9, 0.4, -1.4, i
COc1ccc(Cn2nnnc2C(c2ccccn2)N2CCN(c3cc(Cl)ccc3C)CC2)cc1 (stereo unspecified)
→ 0.707, -1.0, 7.7, /, /, 0.8, 2.4, /, /
Cc1cccc(OCC(=O)Nc2nccs2)c1C
→ 0.67, 20.6, 4.5, -0.5, -5.1, 2.8, 6.8, -10.5, i
CN(C)CCCOc1ccc(C(C)(C)c2ccccc2)cc1
→ 0.691, -4.4, 9.5, /, /, 1.7, 1.9, /, /
CN(C)c1ccc(C(CNC(=O)Cc2cccc3ccccc23)N(C)C)cc1 (stereo unspecified)
→ 0.698, 48.3, -2.5, -0.5, 1.9, 8.1, -0.3, 1.2, i
O=C(CNC(=O)c1ccc(Br)o1)NNC(=O)c1ccccc1O
→ /, 1.7, -6.2, -1.2, -1.1, -3.0, /, -6.3, i
O=C(C=Cc1cccnc1)c1ccccc1
→ 0.631, /, 7.5, -4.2, 11.8, 5.5, 2.1, 5.1, i
CCC(CC)C(=O)Nc1cc([N+](=O)[O-])ccc1Cl
→ 0.704, -5.2, -0.8, 2.4, 13.4, -0.6, 2.7, 1.8, i
CCCCC(=O)NNC(=S)NC(=O)c1ccc([N+](=O)[O-])cc1
→ 0.658, 54.9, 3.2, 3.0, 7.2, -1.0, 7.3, 13.2, i
O=C(Nc1c(-c2ccccc2)nc2ccccn12)c1cccs1
→ 0.683, ?, 2.5, /, /, -2.4, -18.1, /, /

The list goes on.
Each structure is followed by: Ecoli growth, ALR H2O2 inh, B2AR ag, rRNA inh HTS RFP, rRNA inh HTS OD600, HNF4A DNA FP, UCH37 inh, rRNA inh HTS, FGF22 binding
CN(CCOc1ccccc1)c1ccc(S(=O)(=O)N2CCCCC2)cn1
→ 0.717, -2.8, 0.3, /, /, -1.6, 4.0, /, /
CCCC(C)NC(=O)CN1C(=O)c2cccc3cccc1c23 (stereo unspecified)
→ 0.664, -3.8, -5.7, -0.6, 9.9, 3.6, -20.1, 9.0, i
COc1ccccc1C(=O)NCCC(=O)NC1CCCC(C)C1C (stereo unspecified)
→ 0.728, -3.4, 1.9, 1.9, 5.0, 0.0, -2.5, 7.9, i
COc1ccc(F)cc1S(=O)(=O)N1CC(C)CC(C)C1 (stereo unspecified)
→ 0.736, 4.0, 1.4, /, /, -1.7, 2.7, /, /
COc1cccc(-c2csc(N3CCN(C(=S)Nc4cccc(Cl)c4)CC3)n2)c1
→ 0.671, -1.9, -6.2, 4.6, -62.1, 4.2, 2.9, -35.0, i
